# Screens: PubChem BioAssay, National Center for Advancing Translational Sciences (NCATS)
# nsP2pro inh: blocks chikungunya virus nsP2 protease peptide cleavage; FRET peptide cleavage, nsP2pro, fluorescence 1 h; 1.1% of 31,000 active; AID 1964107; Potency, µM (titrated, usually from 24.9 µM), for inactives: at the highest dose activity change, negative = inhibition, usual class: inhibitors; Q8JUX6; active means well fitted inhibition curve with a large enough effect; inconclusive means small, poorly fitted or top-dose-only effect; inactive means no such curve, though single readings can be large or run the other way; also: nearly all actives have a fitted effect of over 60% in size; a reference inhibitor and vehicle were the controls
# The depositor's hits bear a star; i = inactive; ? = inconclusive; & = joins results of further samples; [ ] = dose if it differs, or a comment. % is scaled to controls: 0 for no effect and ±100 for the full control effect; potency is read from the fitted curve at half-maximal effect. Some of the compounds tested. The share of hits here may be higher or lower than overall.
SMILES,nsP2pro inh
CC(CO)C1CCC2(C)CC3C(CO)CC(O)C3C(C)(O)C/C=C/12 (stereo not drawn),?
CCCN(CCC)C(=O)C1CCCN(S(=O)(=O)c2cc(Br)cc3c2N(C(=O)CC)CC3)C1 (stereo not drawn),-12%
O=C(NC1(C(F)(F)F)N=C(c2ccccc2)N(Cc2ccccc2)C1=O)c1ccc(F)cc1 (stereo not drawn),-3%
COC(=O)c1ccc(Cn2nnc3c(=O)[nH]c(C4CCCN(S(=O)(=O)c5ccccc5)C4)nc32)cc1 (stereo not drawn),-13%
O=C(c1cc(-c2ccc(Cl)cc2)c2nncn2n1)N1CCOCC1,-3%[39.2 µM]
CCCOc1ccc(C(=O)NCC2OCCc3ccccc32)cc1 (stereo not drawn),-12%
CCCCc1nn2c(=O)cc(COC(=O)c3cccs3)nc2s1,-21%
Cc1c(Cl)c(OCC(=O)N2CCN(C)CC2)nc2sc(C(=O)NC3CC3)c(N)c12,-9%
CCc1noc(-c2ccn3c(CNC(=O)c4ccc(C)c(F)c4)nnc3c2)n1,i
COCC(=O)NC[C@H]1O[C@@H](CO)[C@@H](O)[C@H]1N1CCc2ccccc2C1,-1%[39.2 µM]
Cc1cccc(-c2noc(-c3ccc(NCC4CCCO4)c([N+](=O)[O-])c3)n2)c1 (stereo not drawn),-12%
Cc1ccnc(NC(=S)N[C@H]2CCN(c3cccc(C(F)(F)F)c3)C2)c1,i

# The list goes on (4 carried over from the part before).
SMILES,nsP2pro inh
CCc1noc(-c2ccn3c(CNC(=O)c4ccc(C)c(F)c4)nnc3c2)n1,i
COCC(=O)NC[C@H]1O[C@@H](CO)[C@@H](O)[C@H]1N1CCc2ccccc2C1,-1%[39.2 µM]
Cc1cccc(-c2noc(-c3ccc(NCC4CCCO4)c([N+](=O)[O-])c3)n2)c1 (stereo not drawn),-12%
Cc1ccnc(NC(=S)N[C@H]2CCN(c3cccc(C(F)(F)F)c3)C2)c1,i
Cc1ccc(C)c(N2CCN(Cc3nnc(-c4ccccc4)o3)CC2)c1,?
Cc1cccc(NC(=O)CSc2nc(C)c(Cc3ccccc3)c(=O)[nH]2)c1C,-28%
CCC(CC)C(=O)OC12C(OC(=O)C(C)C)C(C)C3(O)C(C=C(CO)CC4(O)C(=O)C(C)=CC43)C1C2(C)C (stereo not drawn),-4%[10 µM]
NC(=O)c1cccc2cn(-c3ccc(C4CCCNC4)cc3)nc12 (stereo not drawn),54%[activator]
Cc1noc(C)c1-c1ccc2ncnc(NCC3CCN(C)CC3)c2c1,-13%
Fc1ccc(-c2noc3ncnc(N4CCCCC4)c23)cc1,-12%
COc1cc(O)cc(C)c1C(=O)O[C@@H]1[C@H](O)[C@@H](CO)O[C@H]1n1ccc(=O)[nH]c1=O,-16%[10 µM]
C/C(=C\CO[C@@H]1O[C@H](CO[C@H]2OC[C@](O)(CO)[C@H]2O)[C@@H](O)[C@H](O)[C@H]1O)C(C)(C)O,-10%[10 µM]
Cc1cnc(CCNS(=O)(=O)c2cccc(F)c2)n1C(C)C,i
O=C(Cc1ccc2ccccc2c1)Nc1ccc(S(=O)(=O)Nc2nccs2)cc1,i
O=C1CCCC2=C1C(c1ccccc1C(F)(F)F)N=C(Nc1nc3ccccc3o1)N2 (stereo not drawn),-5%
O=C(Nc1ccc(S(=O)(=O)N(Cc2ccccc2)c2ccccc2)cc1)c1ccccc1F,-17%
CCOc1ccc(CNC(=O)C2CCCN(S(=O)(=O)c3ccc4c(c3)CCCC(=O)N4)C2)cc1 (stereo not drawn),-13%
COc1cc(O)c2c(c1)/C=C/C[C@H](O)[C@H](O)C(=O)/C=C\C[C@H](C)OC2=O,?
O=C(/C=C/c1ccc(O)cc1)O[C@H]1[C@@H]2C=CO[C@@H](O[C@@H]3O[C@H](CO)[C@@H](O)[C@H](O)[C@H]3O)[C@@H]2[C@@]2(CO)O[C@@H]12,-6%[10 µM]
Cc1ccsc1C1N=C(Nc2nc3ccccc3o2)NC2=C1C(=O)CCC2 (stereo not drawn),i
COc1ccc(Cl)cc1NC(=O)C(C)n1c(=O)cc(C(F)(F)F)c2c(C)nn(C)c21 (stereo not drawn),-14%
O=S(=O)(c1cccc(-c2n[nH]c(=S)n2-c2ccccc2)c1)N1CCCC1,i
O=c1ccc2cc(S(=O)(=O)N3CCCC3)ccc2[nH]1,-16%
C=Cc1ccc(CN2C(=O)N(c3ccc(C)c(C)c3)S(=O)(=O)c3ccccc32)cc1,-23%
COc1ccc(CNC(=O)c2ccc3[nH]c(C)c(C)c3c2)c(OC)c1,-14%
CC1=NS(=O)(=O)N(C)C=C1C(=O)OCc1nc(C)no1,-4%
COc1ccc(-c2nc(CSCC(=O)N3CCN(c4cccc(C)c4C)CC3)c(C)o2)cc1OC,-19%
COC(=O)C1=COC(O[C@@H]2O[C@H](CO[C@@H]3O[C@H](COC(=O)/C=C\c4ccc(O)cc4)[C@@H](O)[C@H](O)[C@H]3O)[C@@H](O)[C@H](O)[C@H]2O)C2C(CO)=CCC12 (stereo partly drawn),11%[10 µM]
COc1cc(N2CCN(C(=S)Nc3cc(C)cc(C)n3)CC2)cc(C(F)(F)F)c1,-13%
CC(=O)Nc1sc2c(c1-c1nc3ccccc3s1)CCCN(C(C)C)C2,4%
COc1ccc(N2CCN(C(=O)CCC(=O)NNc3nc4ccccc4c4nc(C)nn34)CC2)cc1,-4%
COc1ccc(-c2noc(C3CC(=O)N(c4ccc5c(c4)OCCO5)C3)n2)c(OC)c1 (stereo not drawn),-11%
O=C(C1CCCC1)N1CCCC(c2nn[nH]n2)C1 (stereo not drawn),1%
CCC1=Nc2cc(C(=O)NC3CCC(C)CC3)ccc2Sc2ccc(C)cc21 (stereo not drawn),-6%
COc1cc(C2NC(=O)c3c(sc4c3CCN(C)C4)N2)ccc1OC(=O)c1ccccc1 (stereo not drawn),-14%
CC(=O)O[C@]1(C(C)=O)CC[C@H]2[C@@H]3C=C(C)C4=CC(=O)CC[C@]4(C)[C@H]3CC[C@@]21C,10%&19%
O=C(OCC(O)CO)c1ccccc1Nc1ccnc2c(C(F)(F)F)cccc12 (stereo not drawn),8%
O=C(CCS(=O)(=O)c1ccc(Br)s1)Nc1cc(C(F)(F)F)cc(C(F)(F)F)c1,-23%
CN(C)C(=O)Nc1cccc(-c2ccc(N(C)C)cc2)c1,?
COc1cccc(C)c1NC(=O)C(OC(=O)CNC(=O)c1ccccc1)c1ccccc1 (stereo not drawn),i
O=C(OCC#CCSc1nnc(-c2ccc3ccccc3c2)o1)c1ccsc1,-5%
COC(=O)C1=C(C)NC(COC(N)=O)=C(C(=O)OC(C)C)C1c1cccc(Cl)c1Cl (stereo not drawn),13%
O=C(NOCC1CC1)c1ccc(F)c(F)c1Nc1ccc(I)cc1Cl,27%
NCCC(=O)O,-11%
Cc1ccc(-n2c(=O)c3ccc(C(=O)NCc4ccccc4Cl)cc3n(Cc3ccccc3F)c2=O)cc1,-16%
O=C1CO[C@H]2CN(Cc3ccccc3)C[C@H]2N1Cc1cccnc1,2%[39.2 µM]
Cc1cc(C)nc(NC(=S)N2CCN(c3ccncc3)CC2)c1,-3%
O=C(Nc1cccc(C(F)(F)F)c1)c1cnn(-c2cccc(F)c2)c1C1CCNCC1,8.9µM*
O=C(O)CCC1CCC(c2cc(F)ccc2F)(S(=O)(=O)c2ccc(Cl)cc2)CC1 (stereo not drawn),-22%&-12%
CCOC(=O)N1CCc2c(sc3c2c(=O)n(-c2ccccc2C(F)(F)F)c(=O)n3Cc2ccccc2C)C1,-19%
C[C@]12CCC(=O)C=C1CC[C@@H]1[C@@H]2CC[C@]2(C)C(=O)CC[C@@H]12,3%
O=C1NS(=O)(=O)c2cc(Br)ccc21,-2%
CCCn1c(C)nc2c(NCCCN3CCCCC3C)nc(C)nc21 (stereo not drawn),4%
COc1cc(O)c(C(CC(=O)N2CCC[C@H](C)C2)c2ccc3c(c2)OCO3)c(OC)c1 (stereo partly drawn),2%[39.2 µM]
Cc1c(P(=S)(c2ccccc2)c2ccccc2)[n+]2ccccc2n1CCCCc1ccccc1,i
CCN(CC)c1ccc(NC(=O)CN2C(=O)c3cccnc3Oc3ccccc32)c(C)c1,-17%
CCCC(=O)Nc1ccc2nc(SCc3ccc(C)cc3)sc2c1,-20%
Cc1cccc(OCCSc2nc3ccc(NC(=O)COc4ccccc4F)cc3s2)c1,-8%
N#Cc1c[nH]c2c(C(=O)N3CCN(CCc4ccc(F)cc4)CC3)cccc12,11%
COc1ccc(CCCc2nnc(SCC(=O)Nc3cccc(F)c3C)o2)cc1,-14%
CN1CCCCCCN(C(=O)Cc2cccc(F)c2)[C@H]2CCC[C@H]2C1=O,i
O=C(Cn1cc(C(F)(F)F)ccc1=O)N1CCC2(CCCNC2=O)C1 (stereo not drawn),i
Cc1cc(OCc2nc(-c3ccccc3Cl)cs2)ccc1OCC(=O)O,5%
Cc1cc(NS(=O)(=O)c2ccc(Nc3nc(-c4ccc(C)c(C)c4)cs3)cc2)no1,?

# (list continues)
SMILES,nsP2pro inh
COc1ccc(S(=O)(=O)NCCc2cn3ccsc3n2)cc1OC,-10%
COCCn1c(CO)nnc1C1CC(NC(=O)c2cc(C)n3nc(C)cc3n2)C1 (stereo not drawn),?
CCCN(C(=O)CCNC(=O)Cn1cnc2ccccc2c1=O)c1cccc(C)c1,-19%
O=C(CSc1ncc2c(n1)-c1ccccc1N(Cc1ccc(F)cc1)S2(=O)=O)NCCc1ccccc1,-17%
Cc1cc(C)c(CNC(=O)c2nc(-c3cccnc3)cc3[nH]ccc23)c(=O)[nH]1,i
CCC(C)C(=O)N1CCC2(CCc3nn(Cc4ccccc4)c(=O)n3CC2)CC1 (stereo not drawn),-4%
Fc1cc(F)cc(Cc2nc3nccc(-c4cccnc4)n3n2)c1,i
CC[C@H](/C=C/[C@@H](C)[C@H]1CC[C@H]2[C@@H]3CC=C4C[C@@H](O)CC[C@]4(C)[C@H]3CC[C@]12C)C(C)C,-5%[2.68 µM]
CC(CNS(=O)(=O)c1ccc2c(c1)CC(=O)N2C)c1ccccc1 (stereo not drawn),-16%
Cc1nc([C@@H]2CN(C(=O)c3cccc(C#N)c3)C[C@H]2C(N)=O)n[nH]1,-3%
O=C1CC(Cc2ccccc2)CN1CC(=O)N1CCOC2(CCCC2)C1 (stereo not drawn),4%
CCCCCCCCCCOc1cc2c(=O)c(C(=O)OCC)c[nH]c2cc1OCC,-8%[2.68 µM]

# An excerpt of these results, with tabs.
SMILES	nsP2pro inh
O=C(C1CCCC1)N1CCCC(c2nn[nH]n2)C1 (stereo not drawn)	1%
CCC1=Nc2cc(C(=O)NC3CCC(C)CC3)ccc2Sc2ccc(C)cc21 (stereo not drawn)	-6%
COc1cc(C2NC(=O)c3c(sc4c3CCN(C)C4)N2)ccc1OC(=O)c1ccccc1 (stereo not drawn)	-14%
CC(=O)O[C@]1(C(C)=O)CC[C@H]2[C@@H]3C=C(C)C4=CC(=O)CC[C@]4(C)[C@H]3CC[C@@]21C	10%&19%

# Looked up by compound from the list above, 6 records:
SMILES,nsP2pro inh
Cc1cc(C)c(CNC(=O)c2nc(-c3cccnc3)cc3[nH]ccc23)c(=O)[nH]1,i
CC(CNS(=O)(=O)c1ccc2c(c1)CC(=O)N2C)c1ccccc1 (stereo not drawn),-16%
O=C1CC(Cc2ccccc2)CN1CC(=O)N1CCOC2(CCCC2)C1 (stereo not drawn),4%
CCC(C)C(=O)N1CCC2(CCc3nn(Cc4ccccc4)c(=O)n3CC2)CC1 (stereo not drawn),-4%
Cc1nc([C@@H]2CN(C(=O)c3cccc(C#N)c3)C[C@H]2C(N)=O)n[nH]1,-3%
COc1ccc(S(=O)(=O)NCCc2cn3ccsc3n2)cc1OC,-10%

# (continued)
SMILES,nsP2pro inh
COc1ccc(CNC(=O)c2ccc3c(c2)N(C)C(=O)C2CCCCN32)cc1OC (stereo not drawn),-16%
CCn1c(=O)c2cc(C(=O)N(CCCOC(C)C)Cc3ccco3)sc2c2ccccc21,-13%
COc1ccc(C2=Nn3c(nnc3-c3ccccc3C(F)(F)F)SC2)cc1OC1CCOC1 (stereo not drawn),-7%
O=C1CC(c2ccccc2)Sc2ccccc2N1Cc1ccccc1F (stereo not drawn),-19%
Cc1cnn(CC(=O)N2CC(F)(F)C[C@H]2c2nc(C3CC3)no2)c1,i
CC(C)=CCC(O)/C(C)=C/CO[C@@H]1O[C@H](CO)[C@@H](O)[C@H](O)[C@H]1O (stereo partly drawn),11%
Cc1cc(C)nc(NC(=S)N2CCN(c3ccc4nccn4c3)CC2)c1,-16%
C/C=C(\C)C(=O)OC[C@H]1O[C@@H](O[C@H]2[C@@H](O[C@H]3O[C@H](CO)[C@@H](O)[C@H](O)[C@H]3O[C@@H]3O[C@H](CO)[C@@H](O)[C@H](O)[C@H]3O)O[C@H](COC(=O)/C(C)=C/C)[C@@H](O)[C@@H]2O)[C@H](O)[C@@H](O)[C@@H]1O,-10%[5.1 µM]
CN(C)c1ccc(C(=O)N[C@H]2C[C@H]3C(=O)NC[C@@H](CCC(=O)N4CCc5ccccc54)N3C2)cc1,-19%
CC[C@H]1C2CC3[C@@H]4N(C)c5ccccc5[C@]45C[C@@H]([C@H]2[C@H]5O)N3[C@H]1O,?
CN(Cc1ccc(OC(F)(F)F)cc1)Cc1ccccc1C(F)(F)F,i
Cc1ccc(C2Nc3ccccc3C(=O)N2c2ccccc2)s1 (stereo not drawn),-12%
Cc1c(C(=O)Nc2cccc(C#N)c2)sc2nc3n(c(=O)c12)CCCCC3,0%
OC(CCN1CCCCC1)(c1ccccc1)C1CCCCC1 (stereo not drawn),1%
O=[S+]([O-])(c1ccc2c(c1)OCCO2)N1CCN([S+](=O)([O-])c2cc(Cl)ccc2F)CC1,i
COCC(=O)N(C1CCOCC1)C1CCN(C(=O)c2cccnc2C)CC1,3%
N[C@H]1Cc2ccccc2N(O)C1=O,50%[activator]
COc1cc(C(C)=O)ccc1O[C@@H]1O[C@H](CO)[C@@H](O)[C@H](O)[C@H]1O,-3%
Cc1nn(S(=O)(=O)c2ccc(Br)cc2)c(C)c1S(=O)(=O)N1CCCCCC1,-20%
